Mtb hypoxia rep = Mtb hypoxia fluorescent reporter inhibition. actives 0.1% (n = 300,000). M. tuberculosis hypoxia-regulated fluorescent reporter, fluorescence. AID 1159583. fluorescence inhibition, % (test concentration not listed);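 active means 35 to 45% if threefold the growth effect, above 45% if 1.5-fold the growth effect; inactive means the rest, general growth blockers included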;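 further: wells of about 50 µL received 100 nL stock; 0% = vehicle wells and 100% = reference inhibitor wells; whole bacteria with a GFP reporter of the hypoxia response; strong numbers were not always called active; many hits fall short of the cut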
Autofluor counter = compound fluorescence in toxin protease inhibitor counterscreen | actives 3.1% (n = 360,000) | fluorescence intensity (concentration not given with the values) | AID 624483 | compound autofluorescence counterscreen, microsphere flow cytometry; stronger effect = higher value;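 active means at least 3 SD above the mean of all compounds, about 16000 in these data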;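 further: 100 nL of 1 mM stock went into each well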
Sa RN4220 lethal = S. aureus RN4220 growth inhibition; actives 0.33% (n = 330,000); inhibition, % (no concentration beside the values); OD600, 16 h; AID 1259311;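 active means z-score of -3 or lower and OD600 up to 0.18 on both plates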;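 further: plate controls were untreated cells for no effect and reference antibiotic for full effect; stock transfer was 100 nL into about 80 µL; one replicate is shown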
BJeLR lethal = kills HRASV12-expressing BJeLR cells | BJeLR (HRASV12) viability, CellTiter-Glo ATP luminescence, 48 h; reference of the scale not given here | inhibition, % (concentration not given with the values) | actives 0.17% (n = 300,000);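 active means replicate mean above 50%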;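 further: 50 nL library stock added to about 25 µL; numbers are from one replicate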
PrP UTR inh = inhibition of PrP 5' UTR reporter expression; cell-based PrP 5' UTR mRNA reporter, plate reader; inhibition, % (test concentration not listed); actives 0.35% (n = 340,000);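 active means every replicate at 50% or more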;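 further: 0 = median of the neutral control wells; tested in H4 reporter cells; numbers are from one replicate; inactives centre near -14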
ugtP null kill = kills S. aureus RN4220 lacking UgtP; S. aureus RN4220 ugtP deletion, OD600 growth, 16 h; some inactives read as strong as hits; growth inhibition, % (concentration not given with the values); actives 0.54% (n = 330,000);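 active means z-score under -3 and OD600 up to 0.15 on both plates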;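 further: plate controls were untreated wells for no effect and antibiotic for full effect; wells of about 80 µL received 100 nL stock; the first replicate is given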
Mtb hypoxia rep growth = further read-out of Mtb hypoxia rep, marked with its call; growth inhibition, %; measured here: M. tuberculosis growth (absorbance);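 0% = vehicle and 100% = reference antibiotic; read after six days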
Starred values were filed as active, the others as inactive; x = no result given; & = joins results of further samples.

The opening three records as a preview:
SMILES	Mtb hypoxia rep	Mtb hypoxia rep growth	Autofluor counter	Sa RN4220 lethal	BJeLR lethal	PrP UTR inh	ugtP null kill
CCOC(=O)CSc1ccccn1	3	-4	2150	2.3	12	-19	13
CCC(C)c1ccccc1NC(=O)Cc1coc2cc3c(cc12)CCC3 (centres undefined)	-2	1	8126	-5.4	-3	-14	-16
CC1Cc2ccccc2N1C1=CC(=O)CCC1 (centres undefined)	11	-1	4295	5.2	6	-2	3

The whole of this part, previewed entries included:
SMILES	Mtb hypoxia rep	Mtb hypoxia rep growth	Autofluor counter	Sa RN4220 lethal	BJeLR lethal	PrP UTR inh	ugtP null kill
CCOC(=O)CSc1ccccn1	3	-4	2150	2.3	12	-19	13
CCC(C)c1ccccc1NC(=O)Cc1coc2cc3c(cc12)CCC3 (centres undefined)	-2	1	8126	-5.4	-3	-14	-16
CC1Cc2ccccc2N1C1=CC(=O)CCC1 (centres undefined)	11	-1	4295	5.2	6	-2	3
Cc1ccccc1CNC(=O)C1CCC(=O)N(CC2CCCCC2)C1 (centres undefined)	1	8	5926	-2.2	16	-3	1
O=C(CN1C(=O)c2ccccc2C1=O)N1CCN(c2ccccc2)CC1	x	x	5110	-2.4	-3	-20	-4
C(=N\n1cnnc1)/c1ccc(N2CCOCC2)s1	x	x	2601	x	5	-5	x
COCCOC(=O)c1nccnc1C(=O)Nc1ccc(S(=O)(=O)N2CCOCC2)cc1	1	6	5202	5.9	-4	-19	4
Cc1ccc(-n2c(C)cc(/C=N/NC(=O)c3ccc(CN4CCOCC4)cc3)c2C)cc1	x	x	19963*	x	-2	-22	x
COc1ccc(-c2cn(-c3ccccc3)c3[n+]2CCS3)cc1	-2&8	1&-6	2004&2184	-1.4&5.3	-12&-8	-11&-6	7&4
CN1C(=O)Cc2cc(S(=O)(=O)NCCc3ccc(Cl)cc3)ccc21	6	-11	4537	4.7	1	-34	10
COCc1nc(-c2ccc(-c3ccc(OC)cc3)nc2OC)no1	0	4	4496	20	-1	-38	14
Nc1ncc(S(=O)(=O)c2ccc([N+](=O)[O-])cc2)s1	-1	3	3763	98*	x	-25	96*
N#C/C(=C/c1ccc(-c2ccc(S(N)(=O)=O)cc2)o1)c1nc2ccccc2s1	3	0	4882	11	x	-77	16
COCCCN(Cc1ccco1)C(=O)CSc1nc2ncccc2[nH]1	10	-6	5621	3.0	-1	-36	2
Cc1nc2ccc(NC3=NCCCCC3)cc2s1	3	5	4109	6.2	-7	-13	7
Cc1noc2ncnc(N3CCCCC3)c12	14	5	4687	2.5	0	-3	9
O=C(CCn1c(=O)oc2ccccc21)Nc1ccc2c(c1)OCCO2	3	15	6296	-13	4	-35	0
O=C(c1cccs1)n1nc(-c2cccnc2)nc1NCc1ccco1	-3	-5	3371	3.5	12	-10	9
CCN(CC)S(=O)(=O)c1cccc(-c2nnc(SC(C)C#N)n2Cc2ccccc2)c1 (centres undefined)	-1	3	7934	3.3	11	-5	2
CC1(C)Oc2ccc(C(=O)N3CCc4ccccc43)cc2N(CC(=O)N2CCCC2)C1=O	x	x	3223	0.3	-7	4	3
CN(CC(=O)O)S(=O)(=O)c1ccc(F)cc1	-7	6	10317	-3.7	-1	-7	-1
Cc1c(NC(=S)NC(NC(=O)CC(C)C)C(Cl)(Cl)Cl)c(=O)n(-c2ccccc2)n1C (centres undefined)	17	9	2105	2.4	-16	-10	-5
Cc1ccc(C2C(=O)N(C3CCC(C)CC3)CC(=O)N2C2CC2)cc1 (centres undefined)	14	16	11109	3.9	-6	-7	4
O=C(CSc1nnnn1-c1ccc2c(c1)OCCO2)N1CCN(C(=O)c2ccco2)CC1	-2	0	4513	-0.4	0	-37	-1
Cn1c2[n+](c3ccc(Cl)cc3c1=O)Cc1ccccc1-2	9	11	5489	1.9	-9	-15	3
O=C(/C=C/c1ccc([N+](=O)[O-])cc1)NCCc1ccccc1	4	9	2156	-5.5	-2	-31	9
COC(=O)C1CCN(C(=O)COC(=O)CC(NC(C)=O)c2ccccc2)CC1 (centres undefined)	7	5	7021	2.7	8	-8	8
CC(C)CN(C(=O)CN1CCN(c2cccc(Cl)c2)CC1)c1c(N)n(CC(C)C)c(=O)[nH]c1=O	1	0	2578	4.2	12	-15	2
Cc1ccc(N(Cc2cc3ccccc3[nH]c2=O)S(C)(=O)=O)cc1	-7	1	3823	8.1	10	-14	5
O=C(COc1ccccc1)Nc1nnc(-c2ccccc2)o1	4	0	5762	5.2	1	-24	-14

Full records, quoted from the list:
Entry for Cc1ccc(C2C(=O)N(C3CCC(C)CC3)CC(=O)N2C2CC2)cc1 (centres undefined) → Mtb hypoxia rep: 14; Mtb hypoxia rep growth: 16; Autofluor counter: 11109; Sa RN4220 lethal: 3.9; BJeLR lethal: -6; PrP UTR inh: -7; ugtP null kill: 4
Entry for O=C(CCn1c(=O)oc2ccccc21)Nc1ccc2c(c1)OCCO2 → Mtb hypoxia rep: 3; Mtb hypoxia rep growth: 15; Autofluor counter: 6296; Sa RN4220 lethal: -13; BJeLR lethal: 4; PrP UTR inh: -35; ugtP null kill: 0

Part of the list above, in CSV form.
SMILES,Mtb hypoxia rep,Mtb hypoxia rep growth,Autofluor counter,Sa RN4220 lethal,BJeLR lethal,PrP UTR inh,ugtP null kill
Cc1ccc(C2C(=O)N(C3CCC(C)CC3)CC(=O)N2C2CC2)cc1 (centres undefined),14,16,11109,3.9,-6,-7,4
O=C(CSc1nnnn1-c1ccc2c(c1)OCCO2)N1CCN(C(=O)c2ccco2)CC1,-2,0,4513,-0.4,0,-37,-1

Remaining list, next part
SMILES	Mtb hypoxia rep	Mtb hypoxia rep growth	Autofluor counter	Sa RN4220 lethal	BJeLR lethal	PrP UTR inh	ugtP null kill
CCOC(=O)C1CCN(S(=O)(=O)c2ccc(Cl)cc2)CC1	4	-4	2924	4.2	11	-4	3
Cc1ccc(S(=O)(=O)c2nnn3c2nc(N2CCOCC2)c2ccccc23)cc1C	2	-6	3571	3.5	-13	-20	-2
COc1ccc(C(=O)NNC(=O)c2ccc(F)c(S(=O)(=O)N3CCOCC3)c2)cc1	0	7	3683	1.0	x	-16	0
COC(=O)c1ccc(Cn2cc(C(F)(F)F)ccc2=O)cc1	14	16	4093	-1.2	-7	-23	1
CC(C)=NOc1nc(N(C)C)nc(N(C)C)n1	2	11	1921	6.6	0	-2	4
CC(CCc1ccc2c(c1)OCO2)=NNC(=O)c1ccccc1Cl	9	8	x	3.4	x	x	-2
CCc1ccccc1NC(=O)CNC1CCCCC1	12	3	4026	4.7	-3	-28	-3
N=c1sc2ccccc2n1-c1ccccc1	-3	8	10239	7.7	7	-28	0
O=C(COC(=O)/C=C/c1ccccc1)NCCc1ccc(F)cc1	6	7	3576	0.4	x	-30	1
COc1ccc(-c2nn(-c3ccccc3)cc2C(=O)NN=Cc2ccc([N+](=O)[O-])o2)cc1	-4	0	x	97*	x	x	100*
CN(CC1CCCN(CCc2ccc(Cl)cc2)C1)C(=O)c1ccco1 (centres undefined)	5	1	5858	1.5	0	-7	5
Cc1cccc(NC(=S)N(CCN(C)C)Cc2cc3cc(C)cc(C)c3[nH]c2=O)c1	16	13	2391	-1.2	7	-13	1
CC[C@@]1(C(=O)OC)N[C@H](CN(C)C(=O)Nc2ccc(OC)cc2)[C@@H]2C(=O)N(C)C(=O)[C@@H]21	2	2	3201	3.4	x	-17	5
Cc1ccc(S(=O)(=O)CNC(=S)c2ccc3ccccc3c2)cc1	2	-6	22964*	46	4	-7	67
CC(=O)c1cc2c(cc1N(C(=O)c1ccco1)C(C(=O)NC1CCCC1)c1ccccc1F)OCO2 (centres undefined)	2	2	5926	4.1	-5	-17	4
CC(=O)N1N=C(c2ccco2)CC1c1ccco1 (centres undefined)	14	7	3093	7.2	5	-32	9
COc1ccc(C(=O)N2CCC3(CC2)NCCc2[nH]cnc23)cc1OC	-10	4	5574	9.5	2	-4	2
O=C(Nc1cccnc1)c1ccc([N+](=O)[O-])o1	7	4	3992	19	2	-26	54
CCOc1ccc(-n2c(SCc3ccc([N+](=O)[O-])cc3)nnc2-c2ccccc2)cc1	5	2	2411	59	3	4	86*
CN(C1CCCCC1)S(=O)(=O)c1ccc2c(c1)c(=O)c(C(=O)NCCN1CCCC1)cn2C	x	x	4888	0.7	-12	-14	-6
Cc1c(C(=O)N2CCc3ccccc3C2)oc2ccccc12	5	5	4190	8.7	-10	-44	-1
O=C(COC(=O)/C=C/c1ccccc1[N+](=O)[O-])Nc1ccc(OCc2ccccc2)cc1	13	4	2400	6.8	2	-64	-2
CC1=NN(c2ccc(C)c(C)c2)C(=O)C1C(c1cccc(O)c1)C1C(=O)N(c2ccc(C)c(C)c2)N=C1C (centres undefined)	-1	2	2433	12	6	-11	-2
COc1nc(C)ccc1-c1noc(-c2ccncc2)n1	6	9	12259	6.6	6	x	5
O=C(CN1CCc2ccccc2C1)Nc1ccccc1N1CCCCCC1	14	13	23403*	-8.2	-14	-5	-32
N#CC(CCc1ccccc1[N+](=O)[O-])(CCc1ccccc1[N+](=O)[O-])C(N)=O	6	11	3606	8.1	x	-12	5
COc1ccc(S(=O)(=O)N2CCCCC2)cc1NC(=O)c1cnc(C)cn1	2	2	7642	2.3	x	-23	6
COc1cccc(/C=N/NC(=O)C[n+]2ccccc2)c1OC	x	x	2514	x	0	-15	x
CCOC(=O)c1c(C)oc2cc(Sc3ccccc3)c(O)c(O)c12	-7	-6	x	0.2	3	x	0
Cc1ccccc1C(=O)N(C)c1ccccc1C(=O)NCc1ccccc1	0	0	6551	0.3	-8	-14	6

Brought forward from above: 4 entries, then new ones.
SMILES	Mtb hypoxia rep	Mtb hypoxia rep growth	Autofluor counter	Sa RN4220 lethal	BJeLR lethal	PrP UTR inh	ugtP null kill
COc1ccc(S(=O)(=O)N2CCCCC2)cc1NC(=O)c1cnc(C)cn1	2	2	7642	2.3	x	-23	6
COc1cccc(/C=N/NC(=O)C[n+]2ccccc2)c1OC	x	x	2514	x	0	-15	x
CCOC(=O)c1c(C)oc2cc(Sc3ccccc3)c(O)c(O)c12	-7	-6	x	0.2	3	x	0
Cc1ccccc1C(=O)N(C)c1ccccc1C(=O)NCc1ccccc1	0	0	6551	0.3	-8	-14	6
O=C(O)CS(=O)CC(=O)Nc1cccc(C(F)(F)F)c1 (centres undefined)	4	5	2623	9.1	-2	-12	2
CN(C)c1ccc(NC(=S)N2CCN(c3ncc(C(F)(F)F)cc3Cl)CC2)cc1	23	4	5528	-1.4	-7	-19	-2
COc1ccc(-c2nnc(SCc3cccc(C)c3)n2N)cc1	15	14	10444	4.6	-1	-23	-10
Nc1cc(SCc2ccc([N+](=O)[O-])cc2)ncn1	22	6	2994	4.9	x	-7	-1
CN(C)C=C(C(=O)c1ccc(F)cc1)S(=O)(=O)c1ccc(F)cc1	-2	0	x	5.2	x	x	0
Cc1cccc(NC(=S)NCc2ccc3c(c2)OCO3)c1C	2	1	2567	3.5	-12	-28	1
CCOC(=O)c1c(C)[nH]c(C(=O)OCC(=O)N2CCc3ccccc32)c1C	x	x	3127	1.7	4	-15	2
CC(C)C(NC(=O)C12CC3CC(CC(C3)C1)C2)C(=O)NN=CC1=C(N2CCOCC2)/C(=C\c2ccc([N+](=O)[O-])cc2)CC1 (centres undefined)	1	-6	x	0.4	x	x	4
CCOC(=O)C(C)Sc1nc(N)c(NC(=O)c2ccc(OC)c(OC)c2)c(=O)[nH]1 (centres undefined)	-4	-6	4404	-0.7	4	-7	0
O=C(Nc1nc2ccc(S(=O)(=O)N3CCCCC3)cc2s1)c1ccncc1	0	2	3655	1.6	-1	-14	-2
O=C(CSc1ccc2c(c1)OCCO2)NCc1ccco1	x	x	3591	6.7	2	-15	4
Cc1cccc(N2CCN(CC(=O)NCc3ccccc3)CC2)c1C	-1	-15	3349	-0.4	1	1	5
CCc1cccc(NC(=O)C2CCCN(S(=O)(=O)c3ccc4[nH]c(=O)ccc4c3)C2)c1 (centres undefined)	-5	-7	5466	5.0	1	-19	9
COc1ccccc1NS(=O)(=O)N(C)C	9	6	2784	-14	7	-17	-3
COc1ccc(-n2c(=O)c3ccccc3n(CC(=O)Nc3cccc(OC)c3)c2=O)cc1	8	5	5571	6.0	-7	-13	-2
